Ecoli growth – E. coli growth inhibition, primary screen, OD600 | Escherichia coli growth, 23 h; hits give low values | OD600 absorbance (test concentration not listed) | 330,000 tested, 0.21% active | AID 1053175, 2014;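 active means OD600 absorbance below the run mean of sample wells minus 3.6 SD, in any replicate, cut at about 0.56 in these data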;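 further: stock transfer was 300 nL into about 60 µL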
The depositor's hits bear a star; & = joins results of further samples.

SMILES	Ecoli growth
Cc1cccc(C2C3C(=O)N(Cc4ccccc4)C(=O)C3[C@]3(Cc4ccccc4)C(=O)N(c4ccc(C(F)(F)F)cc4)C(=O)N23)c1 (stereo not given in full)	0.7
COc1ccccc1OCC(=O)NN=CC=Cc1ccc([N+](=O)[O-])o1	0.36*
CC1CN(C(C)CO)C(=O)c2cc(NC(=O)c3ccncc3)ccc2OC1CN(C)C(=O)NC1CCCCC1 (stereo not given)	0.62
Cc1c(C)c2c(c(C)c1O)CC[C@@](C)(CCCC(C)CCCC(C)CCCC(C)C)O2 (stereo not given in full)	0.66
C#CCOCCOCCOCCNc1nc(N2CCN(C(=O)C(C(C)CC)n3cc(C(N)Cc4ccc(O)cc4)nn3)CC2)nc(N2CCN(C(=O)C(C(C)CC)n3cc(C(N)CC(C)C)nn3)CC2)n1 (stereo not given)	0.65
Cc1cn(C(C(=O)NCCCCCCCCCCC(=O)N2CCNCC2)C(C)O)nn1 (stereo not given)	0.73
FC(F)(F)c1ccc(C2C3CN(Cc4ccc(-c5ccccc5)cc4)C(c4ccccc4)C34CC2(c2ccccc2)C4)cc1 (stereo not given)	0.71
CCOc1ccc(C2CC=C(C(=O)O)C(c3cccc(Cl)c3)N2S(=O)(=O)c2ccc(C)cc2)cc1 (stereo not given)	0.7
COc1ccc(NC(=O)Nc2ccc3c(c2)CC(=O)N(C(C)CO)CC(C)C(CN(C)Cc2ccc(C(=O)O)cc2)O3)cc1 (stereo not given)	0.62
COC(=O)C1=C(C)N(Cc2ccccc2)C(=O)NC1CCc1ccccc1 (stereo not given)	0.68
Cc1cc(CNC(=O)C2(C(F)(F)F)CC(=CCc3ccccc3)CCCO2)nn1C (stereo not given)	0.7
C#CCOCCOCCOCCNc1nc(N2CCN(C(=O)C(CCC(=O)O)n3cc(C(N)Cc4ccc(O)cc4)nn3)CC2)nc(N2CCN(C(=O)C(CCC(=O)O)n3cc(C(N)Cc4ccc(O)cc4)nn3)CC2)n1 (stereo not given)	0.67
CC(NC(=O)c1nc[nH]c1C(=O)N1CCc2ccccc2C1)C(=O)OCc1ccccc1 (stereo not given)	0.69
COc1ccccc1C=CC1=NC(=CC=Cc2ccccc2)C(=O)O1	0.72
CCCCCCc1ccc(N2CC(CCCCC)C(CC(=O)NCc3ccccc3)C2=O)cc1 (stereo not given)	0.7

Exported bar-delimited: part of the list above.
Compound | Ecoli growth
CC1CN(C(C)CO)C(=O)c2cc(NC(=O)c3ccncc3)ccc2OC1CN(C)C(=O)NC1CCCCC1 (stereo not given) | 0.62
Cc1c(C)c2c(c(C)c1O)CC[C@@](C)(CCCC(C)CCCC(C)CCCC(C)C)O2 (stereo not given in full) | 0.66
C#CCOCCOCCOCCNc1nc(N2CCN(C(=O)C(C(C)CC)n3cc(C(N)Cc4ccc(O)cc4)nn3)CC2)nc(N2CCN(C(=O)C(C(C)CC)n3cc(C(N)CC(C)C)nn3)CC2)n1 (stereo not given) | 0.65
Cc1cn(C(C(=O)NCCCCCCCCCCC(=O)N2CCNCC2)C(C)O)nn1 (stereo not given) | 0.73

(listing goes on)
SMILES	Ecoli growth
N#CC(=Cc1ccc(Cl)cc1Cl)c1n[nH]c(Cn2cncn2)n1	0.69
CC1CN(C(C)CO)C(=O)c2cc(NC(=O)Cn3cnnn3)ccc2OC1CN(C)S(=O)(=O)c1cn(C)cn1 (stereo not given)	0.66
COc1ccc(C2C3C(=O)N(C(C)(C)C)C(=O)C3[C@]3(Cc4ccc(Cl)cc4)C(=O)N(c4cccc(F)c4)C(=O)N23)cc1 (stereo not given in full)	0.7
COc1ccc(C2CC(=O)C=C(c3cccc(C#N)c3)C2)cc1 (stereo not given)	0.67
COc1ccc2c(c1OC)CN1CCc3cc4c(cc3C1C2O)OCO4 (stereo not given)	0.66
C[C@]1(C(=O)NCc2cc(F)cc(C(F)(F)F)c2)C=CC(Cc2ccccc2)N1C(=O)c1ccccc1 (stereo not given in full)	0.69
COc1ccc(C2=CC(=O)CC(c3ccc(F)cc3)C2)c(OC)c1 (stereo not given)	0.69
O=C1NC(Cc2c[nH]c3ccccc23)COC(=O)C(Cc2ccc(F)cc2)CC=CCC1CC(=O)N(CCO)Cc1ccccc1 (stereo not given)	0.64&0.67&0.64
CC=C(C)C(=O)Nc1cccc(C2=NOC3(C2)CC(C(N)=O)N(C(=O)c2ccccc2)C3)c1 (stereo not given)	0.7
O=C(O)C1CCCN1S(=O)(=O)c1cccc2cccnc12 (stereo not given)	0.72&0.71
CC(=O)n1cc(C2C=C(C(=O)O)OC(OCc3ccc(CO)cc3)C2)c2ccccc21 (stereo not given)	0.68
CC1CN(C(C)CO)C(=O)c2cccc(NC(=O)Cc3ccccc3)c2OC1CN(C)S(=O)(=O)c1cccs1 (stereo not given)	0.7
N#Cc1ccccc1COc1ccc(C=CC(=O)O)cc1	0.71
C=C1CCN(C(CC(C)C)C(=O)N2CCOCC2)S(=O)(=O)c2ccccc21 (stereo not given)	0.69
CC1CN(C(C)CO)C(=O)c2cccc(NC(=O)CCC(F)(F)F)c2OC1CN(C)S(=O)(=O)c1ccc(F)cc1 (stereo not given)	0.66

Random excerpt: 6 entries already listed.
SMILES	Ecoli growth
O=C1NC(Cc2c[nH]c3ccccc23)COC(=O)C(Cc2ccc(F)cc2)CC=CCC1CC(=O)N(CCO)Cc1ccccc1 (stereo not given)	0.64&0.67&0.64
C[C@]1(C(=O)NCc2cc(F)cc(C(F)(F)F)c2)C=CC(Cc2ccccc2)N1C(=O)c1ccccc1 (stereo not given in full)	0.69
COc1ccc(C2=CC(=O)CC(c3ccc(F)cc3)C2)c(OC)c1 (stereo not given)	0.69
CC1CN(C(C)CO)C(=O)c2cccc(NC(=O)Cc3ccccc3)c2OC1CN(C)S(=O)(=O)c1cccs1 (stereo not given)	0.7
N#CC(=Cc1ccc(Cl)cc1Cl)c1n[nH]c(Cn2cncn2)n1	0.69
CC1CN(C(C)CO)C(=O)c2cccc(NC(=O)CCC(F)(F)F)c2OC1CN(C)S(=O)(=O)c1ccc(F)cc1 (stereo not given)	0.66

Continuation:
SMILES	Ecoli growth
C#Cc1ccc(C2C=C(C(=O)O)OC(OCCCCO)C2)cc1 (stereo not given)	0.65&0.64
CCOC(=O)C1C2COc3ccccc3C2N2C(=O)c3cc(F)ccc3NC(=O)[C@@]12C (stereo not given in full)	0.68
O=C1CCC=CCC(CC(=O)N(CCO)Cc2ccccc2)C(=O)NCCO1 (stereo not given)	0.68
CCCCCCSc1ccc(C2C3C(=O)N(C)C(=O)C3[C@]3(C(=O)OC)CCCCN23)cc1 (stereo not given in full)	0.69&0.71
CCN1CC2C3C(=O)N(Cc4ccccc4)C(=O)C3[C@](CC)(C1=O)N2C(=O)c1ccc(C(F)(F)F)cc1 (stereo not given in full)	0.66
CCN1C(=O)C2C(c3ccc(-c4ccc(F)cc4)c(OC)c3)N3CCC[C@@]3(C(=O)OC)C2C1=O (stereo not given in full)	0.67&0.69
O=c1nc(C=Cc2cccn2-c2ccc([N+](=O)[O-])cc2)cc(C(F)(F)F)[nH]1	0.73
CCOC1OC(C(=O)N2CCCCCCC2)=CC(c2coc3ccccc3c2=O)C1CCCO (stereo not given)	0.66
COc1cc(CCCN2C(=O)C(=O)NCC2c2ccccc2)cc(OC)c1OC (stereo not given)	0.65
CCCCCCCCCC(=O)NC(CN1CCOCC1)C(O)c1ccccc1 (stereo not given)	0.69
CCN1C(=O)C2C(c3ccc(-c4ccc5c(c4)OCO5)cc3)N3CCC[C@@]3(C(=O)OC)C2C1=O (stereo not given in full)	0.72
O=S(=O)(NCc1ccccc1)C1CC2C=CC1C2 (stereo not given)	0.67
COc1cc2cc(Oc3ccc4ccc(=O)oc4c3)c(=O)oc2cc1OC1OC(CO)C(O)C(O)C1O (stereo not given)	0.7
COc1ccc(-n2c(O)c(C=NNS(=O)(=O)c3ccc(C)cc3)c3ccccc3c2=O)cc1OC	0.71
CCN1C(=NCCc2cccnc2)NC(c2ccccc2)C(C(=O)OC)C1C (stereo not given)	0.67
CC(=O)C1C(c2ccccc2)NC(=O)N(Cc2ccccc2)C1C (stereo not given)	0.71
CCOC(=O)C1C2COc3ccc(C)cc3C2N2C(=O)CN(Cc3ccc(F)cc3)C(=O)[C@@]12C (stereo not given in full)	0.7
CCCCCC(O)C=CC1C(O)CC(O)C1CC=CCCCC(=O)OC (stereo not given)	0.64
O=C(CC1CC=CCCC(Cc2ccc(F)cc2)C(=O)OC(c2ccccc2)CNC1=O)NC(CO)Cc1ccccc1 (stereo not given)	0.66&0.67&0.71&0.71
C#CCOCCOCCOCCNc1nc(N2CCN(C(=O)CCCCCCCCCCNC(=O)C(CCCCN)n3cc(C)nn3)CC2)nc(N2CCN(C(=O)CCCCCCCCCCNC(=O)C(C(C)O)n3cc(C)nn3)CC2)n1 (stereo not given)	0.59
NC(=O)C1CC2(CC(c3cccc(NC(=O)C4CCC(=O)N4)c3)=NO2)CN1C(=O)c1ccc(Cl)cc1 (stereo not given)	0.65
Cc1cccc(C(=O)OC2C(Cc3ccccc3)NS(=O)(=O)C3CC4C=C[C@]23O4)c1 (stereo not given in full)	0.63&0.66
CCc1ccc(C=C2SC(=S)N(CC(=O)Nc3nc4ccccc4s3)C2=O)cc1	0.7
CCCCS(=O)(=O)N1C2=NC(C(=O)OC)=C(C(=O)OC)C3N(C)c4ccc(OC)cc4[C@]23CC1C(=O)OC (stereo not given in full)	0.65
COC(=O)[C@]1(Cc2ccccc2)NC(c2ccc(-c3ccc(F)cc3)cc2)C2C(=O)N(C)C(=O)C21 (stereo not given in full)	0.72
CCCSc1ccc(C2N[C@@](C)(C(=O)OC)C3C(=O)N(C)C(=O)C23)cc1OC (stereo not given in full)	0.71
COc1ccc(CC(N)=NOC(=O)c2ccc(Cl)cc2)cc1	0.73
Fc1cccc(CCN2CCNCC2CC2CCCCC2)c1 (stereo not given)	0.65
COc1ccc(C2C3C(=O)N(C(C)(C)C)C(=O)C3[C@]3(C)C(=O)N(c4cccc(Cl)c4)C(=O)N23)cc1 (stereo not given in full)	0.67
CC(C)CC1COCCS(=O)(=O)N1Cc1ccccc1F (stereo not given)	0.71
CCC1=NN2C(=N)C(=Cc3cccn3-c3ccc(OC)cc3)C(=O)N=C2S1	0.63
N#CCC(Cc1ccccc1)N1CCC(O)CCC1=O (stereo not given)	0.69
CC(C)CC(NC(=O)c1nc[nH]c1C(=O)NC1CCNCC1)C(=O)OCc1ccccc1 (stereo not given)	0.65
O=C1C2CCC3C(=NOCC(O)COCc4ccco4)CC(O)C(O)C3C2C(=O)N1c1ccc(F)cc1F (stereo not given)	0.71
COc1cc(C=CC(=O)O)ccc1OCc1cnc(Cl)s1	0.68
CC(C)(C)OC(=O)CC1CC=CCC(CC(=O)N(CCO)Cc2ccccc2)C(=O)NC(c2ccccc2)COC1=O (stereo not given)	0.64&0.6&0.71
CC(C)(C)C1CCC(=O)N(CCC(N=[N+]=[N-])c2ccccc2)CC1 (stereo not given)	0.67
C#CCOCCOCCOCCNc1nc(N2CCN(C(=O)C(CCCCN)n3cc(C(N)CO)nn3)CC2)nc(N2CCN(C(=O)C(Cc3cc4ccccc4[nH]3)n3cc(C(N)CC(C)C)nn3)CC2)n1 (stereo not given)	0.67
C#CCOCCOCCOCCNc1nc(N2CCN(C(=O)CCCCCCCCCCNC(=O)C(CCSC)n3cc(CCO)nn3)CC2)nc(N2CCN(C(=O)CCCCCCCCCCNC(=O)C(CCC(=O)O)n3cc(CCCCCN)nn3)CC2)n1 (stereo not given)	0.67
CCOC(=O)C1=C(O)C(=Cc2cc(C)n(-c3ccc(F)cc3)c2C)N=C1C	0.69
CCCCCCCCCCCCN1CC(=CC(=O)OCC)c2cc(C(F)(F)F)ccc2S1(=O)=O	0.7
O=C1CCN(CCc2ccccc2)CCN1C(COc1ccccc1)c1ccccc1 (stereo not given)	0.58
CC(O)C1CCC2C3CCC4CC(O)CC[C@]4(C)C3C(=NO)C[C@]12C (stereo not given in full)	0.67
C#CCNC(=O)C1=CC(C2CC2)C(CCCO)C(OCC)O1 (stereo not given)	0.69
C=C(C)C(=O)Nc1cccc(C2=NOC3(C2)CC(C(N)=O)N(C(=O)CC#N)C3)c1 (stereo not given)	0.7
O=C1CCCC=CCC(CC(=O)N(CCO)Cc2ccccc2)C(=O)NCCO1 (stereo not given)	0.68
CC(C)CC1CN=C(N)N1CC1CCCN1CC(C)N1CC(Cc2ccccc2)N(CCc2ccc(Cl)c(Cl)c2)C1=N (stereo not given)	0.2*
CC1CN(C(C)CO)C(=O)c2cc(NC(=O)Cc3cn(C)c4ccccc34)ccc2OC1CN(C)C(=O)Nc1ccc2c(c1)OCO2 (stereo not given)	0.66
CCOC(=O)C=Cc1ccc2c(c1)S(=O)(=O)N(c1cccc(OC)c1)C2CC(=O)OCC (stereo not given)	0.71
COC(=O)[C@@]12CCCN1C(c1ccc(-c3ccc4c(c3)OCO4)c(OC)c1)C1C(=O)N(C)C(=O)C12 (stereo not given in full)	0.71
COc1cc(C=CC(=O)NNc2c(F)c(F)cc(F)c2F)ccc1OC(F)F	0.69
CCCCCCCCCCCCN1C(CC(C)=O)c2cc(C(F)(F)F)ccc2S1(=O)=O (stereo not given)	0.69
CC1CN(C(C)CO)C(=O)c2cccc(NS(=O)(=O)c3ccccc3)c2OC1CN(C)CC1CC1 (stereo not given)	0.68
CCN1C(=O)C(=C2C=Cc3cc(C)ccc3N2CC)OC1=S	0.67
COc1cc(CCCN2CCNCC2CC2CCCCC2)cc(OC)c1OC (stereo not given)	0.73
CC(C)CC1CN=C(Nc2ccccc2)N1CCCCc1ccccc1 (stereo not given)	0.67
O=C(NCc1nc2ccccc2[nH]1)C1=CC(C2CCCCC2)CC(OCCCCO)O1 (stereo not given)	0.71&0.69
CCOC(=O)C1C2COc3cc(OC)ccc3C2N2C(=O)c3cc(F)c(F)cc3NC(=O)[C@@]12C (stereo not given in full)	0.69
CCOC(=O)C1C2COc3ccc(Br)cc3C2N2C(=O)N(c3ccc(Br)cc3)C(=O)[C@@]12C (stereo not given in full)	0.65
CC(=O)N1C(Cc2ccccc2)C=C[C@]1(C)C(=O)NCCc1c[nH]c2ccccc12 (stereo not given in full)	0.69
CCOC(=O)C1C2COc3ccc(Br)cc3C2N2C(=O)CNC(=O)[C@@]12C (stereo not given in full)	0.68
O=C(CC1CC=CCC(Cc2ccc(F)cc2)C(=O)OCC2CCCN2C1=O)NCCO (stereo not given)	0.71&0.68&0.67

Screening data (PubChem)

Some of the compounds tested; count on the stated rates, not on these rows.
